RGS16-Gao – RGS16-Galphao interaction regulator (human); bead-based flow cytometry RGS16-Galphao binding, fluorescence; actives lie on both sides; binding response (% of control), % at 10 µM; 220,000 compounds, 0.38% hits; AID 1441;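 active means below 25% or above 175%, edge rows of some plates excepted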;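 further: Galphao activated by GDP with aluminum fluoride before binding; 100% = wells without compound and 0% = beads without RGS; some results beyond the cut were filed as inactive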
HSV augment – increases HSV replication in cells; HSV replication augmentation in cells, fold increase; maximum fold increase; 220,000 compounds, 0.005% hits; AID 1956;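 active means peak rise of 1.5-fold or more in the series; inconclusive means self-fluorescent or not available for retest; tested in PC3 cells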;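 further: first round at 10 µM; read as green reporter fluorescence; hits show the peak of a series up to 25 µM; 1 = signal of infected wells without compound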
PKD1 inh – PKD1 (human) kinase inhibition | Q15139 | PKD1 kinase fluorescence polarization assay | inhibition, %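 (about 10 µM by stock and volumes)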 | 200,000 compounds, 0.056% hits | AID 797;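 active means inhibition of 50% or more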;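 further: controls were vehicle for no effect and a reference inhibitor for full effect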
Target sequence (Q15139 whole entry, looked up): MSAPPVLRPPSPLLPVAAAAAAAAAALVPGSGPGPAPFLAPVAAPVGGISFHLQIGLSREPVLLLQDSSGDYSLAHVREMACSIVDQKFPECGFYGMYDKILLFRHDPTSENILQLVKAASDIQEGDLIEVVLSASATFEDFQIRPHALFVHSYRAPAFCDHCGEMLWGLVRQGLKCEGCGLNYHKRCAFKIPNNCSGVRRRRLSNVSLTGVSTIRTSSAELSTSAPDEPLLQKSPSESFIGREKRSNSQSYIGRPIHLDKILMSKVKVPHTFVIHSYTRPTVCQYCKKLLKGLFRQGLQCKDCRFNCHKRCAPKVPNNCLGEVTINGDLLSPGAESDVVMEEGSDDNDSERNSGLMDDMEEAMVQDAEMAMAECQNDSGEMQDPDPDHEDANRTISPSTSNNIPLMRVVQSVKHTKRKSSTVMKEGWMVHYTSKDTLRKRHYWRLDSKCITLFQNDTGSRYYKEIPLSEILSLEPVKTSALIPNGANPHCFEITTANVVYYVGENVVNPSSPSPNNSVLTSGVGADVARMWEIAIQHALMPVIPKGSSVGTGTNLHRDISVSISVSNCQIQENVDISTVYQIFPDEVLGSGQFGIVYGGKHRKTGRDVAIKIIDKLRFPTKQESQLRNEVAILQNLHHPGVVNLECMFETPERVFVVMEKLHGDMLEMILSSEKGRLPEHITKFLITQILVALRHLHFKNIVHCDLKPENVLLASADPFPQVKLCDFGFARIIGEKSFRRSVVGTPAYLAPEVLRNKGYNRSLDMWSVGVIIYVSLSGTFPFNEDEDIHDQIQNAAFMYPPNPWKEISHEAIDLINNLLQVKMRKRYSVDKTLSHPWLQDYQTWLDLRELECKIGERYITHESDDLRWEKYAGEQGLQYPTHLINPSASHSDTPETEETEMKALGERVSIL
INS promoter inh – TRM-6 insulin promoter activity inhibition. inhibition, % at 2 µM. AID 1273. 130,000 compounds, 0.9% hits. TRM-6 cells (human fetal islet line), insulin promoter-eGFP reporter, imaging; reporter expression induced with tamoxifen;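 active means inhibition above the mean plus 3 SD, with well images judged a real hit on visual review, cut at about 60% in these data, passing the limit was not always enough; inconclusive means inhibition over the cutoff but images rejected on review; inactive means inhibition not above the cutoff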
GALR2 agonist – agonists of human galanin receptor 2 (GALR2); 140,000 compounds, 0.48% hits; O43603; activation, %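 (tested at 5 µM)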; GALR2-expressing cells, agonist activation read-out; AID 803;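 active means above mean plus 3 SD of all compounds, about 5% in these data, not always enough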;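 further: 0% = vehicle buffer wells and 100% = reference agonist at full effect; tested in CHO reporter cells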
INS promoter inh cell count – further read-out of INS promoter inh, marked with its call; normalized cell count, %; measured here: cell count, toxicity; reference of the scale not given here;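 cells exposed to compound for 48 h; stained nuclei by imaging scaled within each plate; lower means fewer cells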
HSV augment primary fold – further read-out of HSV augment, marked with its call; fold increase; compound at 10 µM; measured here: primary screen fold increase 10 uM; tested in PC3 cells;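 GFP signal in the first replicate; 1 = infected wells without compound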
* marks the source's active call; other numbers are inactive results; i = inactive; ? = inconclusive; nt = not tested or not shown.

SMILES	PKD1 inh	INS promoter inh cell count	GALR2 agonist	INS promoter inh	RGS16-Gao	HSV augment primary fold	HSV augment
Cc1cccc(N2CCN(C(=O)Cn3cnc4c3c(=O)n(C)c(=O)n4C)CC2)c1C	0	83	-2.4	61	103	0.87	i
O=C(Cc1ccccc1)c1nnc(-c2ccccc2)o1	-2	89	nt	14	106	0.9	i
O=c1nc2ccccc2c(NS(=O)(=O)c2ccccc2)n1-c1ccccc1	5	88	-1.4	-30	68	1	i
O=C1[C@@H]2C(Cc3ccc(O)cc3)NC3(C(=O)Nc4ccc(F)cc43)[C@@H]2C(=O)N1c1ccc(F)cc1 (some centres not stated)	6	142	-1.6	36	84	1.1	i
CS(=O)(=O)N1CCN(c2ccc([N+](=O)[O-])cc2C(F)(F)F)CC1	nt	nt	nt	nt	100	1	i
Cc1ccc(NC(=O)c2cc(NC(=O)CCC(=O)O)ccc2N2CCCCC2)cc1	-12	124	-1.3	17	104	0.99	i
CCOC(=O)c1cc(C#N)c(SCc2cccc3ccccc23)nc1C	-3	79	0.0	0	62	0.99	i
CC(C)(C)c1ccc(OCC(=O)N/N=C/C2CC=CCC2)cc1 (configuration not stated)	-1	nt	nt	nt	97	0.86	i
COc1ccc(N(CC(=O)NCCC2=CCCCC2)S(=O)(=O)c2ccc(C)cc2)cc1	-2	nt	nt	nt	96	1	i
O=C(c1cccc(F)c1)N1CCN(c2cccc(C(F)(F)F)c2)CC1	4	187	-0.9	12	104	0.88	i
CCCc1noc2c1C(c1cc(Br)ccc1F)C(C#N)=C(N)N2 (configuration not stated)	-3	nt	nt	nt	98	0.98	i
COC(=O)[C@H](CCSC)NC(=O)Nc1cc(C)ccc1C	-4	104	-3.1	21	98	0.91	i
CCN(C(=O)CSc1nncn1-c1ccccc1)c1c(N)n(Cc2ccccc2)c(=O)[nH]c1=O	-11	111	-0.4	-17	99	1	i
CCOC(=O)c1cc(-c2csc(N/N=C/c3ccccc3Cl)n2)on1	nt	nt	nt	nt	97	0.9	i
COc1ccc(NC(=O)C2CCN(S(=O)(=O)c3cccc4cccnc34)CC2)cc1	-15	nt	-1.6	nt	103	0.83	i
COc1ccc(C(CC(=O)N2CCCC(C)C2)c2c(O)cc(OC)cc2OC)cc1 (configuration not stated)	nt	nt	nt	nt	104	0.86	i
CS(=O)(=O)N(CCc1ccccc1)CC(=O)N1CCCC1	nt	nt	nt	nt	101	0.99	i
COc1ccc(-n2nnnc2/C=C\Nc2ccc(C)cc2)cc1	nt	nt	nt	nt	102	0.9	i
Nc1cccc(C(=O)OCC(=O)c2ccccc2)c1	4	nt	-2.2	nt	105	0.99	i
Clc1cccc(Nc2ncnc3c2cnn3-c2ccccc2)c1	nt	nt	nt	nt	91	0.91	i
COc1ccc(S(=O)(=O)NCC2CCCN(C(=O)c3occc3C)C2)cc1 (configuration not stated)	7	nt	nt	nt	112	0.93	i
COc1cc(/C=C/C(=O)OCc2cn3cc(Cl)ccc3n2)ccc1O	nt	nt	nt	nt	96	0.45	i
CCOc1ccc(NC(=O)CN2C(=O)C(C)SC(C)C2=O)cc1 (configuration not stated)	-7	nt	nt	nt	92	0.9	i
CN(C)S(=O)(=O)Oc1ccc(C(=O)Nc2cccc(C(F)(F)F)c2)cc1	3	nt	nt	nt	102	0.82	i

Two records drawn at random from the list so far:
SMILES	PKD1 inh	INS promoter inh cell count	GALR2 agonist	INS promoter inh	RGS16-Gao	HSV augment primary fold	HSV augment
CCN(C(=O)CSc1nncn1-c1ccccc1)c1c(N)n(Cc2ccccc2)c(=O)[nH]c1=O	-11	111	-0.4	-17	99	1	i
CCOc1ccc(NC(=O)CN2C(=O)C(C)SC(C)C2=O)cc1 (configuration not stated)	-7	nt	nt	nt	92	0.9	i

Next part
SMILES	PKD1 inh	INS promoter inh cell count	GALR2 agonist	INS promoter inh	RGS16-Gao	HSV augment primary fold	HSV augment
CN1CCN(CCCCOc2ccccc2-c2ccccc2)CC1	-8	nt	nt	nt	105	0.84	i
O=C(Nc1cc(=O)[nH]c2nc(-c3ccccc3)nn12)c1ccccc1Cl	nt	nt	nt	nt	90	1	i
O=C(COc1ccccc1C(=O)Nc1ccccc1)c1ccc(Br)cc1	-6	nt	nt	nt	104	1.1	i
Cn1/c(=N/N=C/c2ccccn2)sc2ccccc21	-17	nt	nt	nt	105	0.97	i
C(/C=C/c1ccccc1)=N/N1CCN(c2ccccc2)CC1	-7	75	-2.0	48	99	0.8	i
c1ccn2c(CNc3ncnc4sccc34)nnc2c1	-1	99	-2.3	27	100	0.83	i
O=C(NC1CCCCC1)c1cc([N+](=O)[O-])ccc1N1CCOCC1	-13	nt	-0.8	nt	107	0.97	i
N#Cc1ccc(N2C(=O)[C@@H]3C(C(=O)c4cnccn4)=NN[C@@H]3C2=O)cc1	nt	nt	nt	nt	96	1.1	i
CCOC(=O)N1CCC(NC(=O)C2CCN(c3nc(-c4ccc(OC)cc4)no3)CC2)CC1	-16	nt	-1.7	nt	111	nt	nt
N=C1C(c2nc3ccccc3s2)=C(O)CN1Cc1ccco1	2	141	0.1	49	97	0.78	i
Cc1ccc(/C=N/NC(=O)C(C)Oc2ccccc2[N+](=O)[O-])s1 (configuration not stated)	-1	103	-1.2	-23	60	0.91	i
CCCCCCCCC(=O)N/N=C/c1ccccn1	5	nt	-1.3	nt	93	0.76	i
O=C(NCCSc1ccccc1)c1ccccc1Cl	1	128	-0.1	-55	103	1	i
COc1cccc(NC(=O)c2nnn(CCc3ccccc3)c2N)c1	3	nt	-1.0	nt	101	0.78	i
Cc1ccccc1OCc1nnc(SCC(=O)NCc2ccco2)n1C	0	nt	nt	nt	104	0.93	i
N#Cc1cnc(SCCc2ccccc2)nc1N	-2	75	-2.1	10	101	0.91	i
CC(=Nc1ccc(C)c(C)c1)C1=C(O)CSC1=O	-6	nt	-1.6	nt	90	1	i
CCCCn1c(SCC(=O)NCc2ccco2)nc2ccccc2c1=O	2	123	-2.8	-23	105	0.92	i
COC(=O)[C@H](C(C)C)n1c(C)c(C(C)=O)c(C(C)=O)c1C	1	80	-3.5	-50	96	1	i
CS(=O)(=O)N(CC(=O)N1CCN(c2ccccc2)CC1)C1CCCCC1	-5	72	0.4	37	100	0.97	i
CCC1Cc2c(nc3c4c(nc(N5CCOCC5)c(C#N)c24)NC(C)=N3)O1 (configuration not stated)	-2	128	-2.5	7	nt	nt	nt
CN(C)c1cc(NC(=O)CN2CCOCC2)c2ccccc2n1	-19	nt	-1.7	nt	nt	nt	nt
CC(/C=N/n1c(COc2ccccc2)n[nH]c1=S)=C\c1ccccc1	-2	84	-1.2	-34	104	0.83	i
C=C(C)Cn1c(NCCOC)nc2c1c(=O)[nH]c(=O)n2C	-6	123	-4.0	55	104	0.91	i
CCN(CC)S(=O)(=O)c1ccc(NCC2COc3ccccc3O2)c([N+](=O)[O-])c1 (configuration not stated)	-5	102	-1.5	-13	102	0.92	i
COc1ccc(C2(C(=O)Nc3nncs3)CCCC2)cc1	-1	93	0.5	4	105	0.82	i
N#Cc1ccc(NC(=O)Cn2c3[n+](c4ccc(C(F)(F)F)cc42)CCCCC3)cc1	5	114	nt	18	105	1.1	i
COc1ccccc1-n1c(CNc2ccc(F)cc2)nnc1SCC(=O)Nc1cc(C)on1	-8	107	-1.0	60	109	1	i
CCOc1ccc(NC(=S)/C(=C(\[O-])c2ccc(C)c([N+](=O)[O-])c2)[n+]2ccccc2)cc1	1	108	-2.1	-12	26	1.1	i
CSc1ccccc1NC(=O)Nc1ccc(Cl)cc1	1	108	-0.7	4	101	0.9	i
O=C(/C=C/c1ccccc1)CC(O)(c1ccccc1)C(F)(F)F (configuration not stated)	-7	51	-1.3	50	101	0.54	i
CC1=C(C(=O)O)N2C(=O)C(NC(=O)c3nn(C)c(C)c3Cl)C2SC1 (configuration not stated)	0	105	nt	18	89	0.98	i
CNC(=S)Nn1cnc2ccccc21	nt	nt	nt	nt	97	0.97	i
Cc1cc(C(=O)CSc2n[nH]c(N)n2)c(C)n1-c1ccccc1	-5	107	-2.0	16	103	1	i
O=c1c2c(nc3cc(-c4ccc(Br)cc4)[nH]n13)CCCC2	-3	179	nt	28	102	0.79	i
CCn1nc(C)c(CNC(=O)Nc2ccc3c(c2)OCO3)c1C	3	nt	nt	nt	99	0.91	i
CC(C)(C)NC(=O)c1ccc2nsnc2c1	-5	113	-1.4	29	116	0.89	i
O=C(Nc1ccon1)c1ccc(OC2CCCC2)cc1	-13	83	-1.6	3	33	0.93	i
COCCN(C(=S)Nc1cc(C)cc(C)c1)C(C)c1ccco1 (configuration not stated)	-4	nt	nt	nt	97	0.95	i
COC(=O)C1CCN(c2cc(=O)n(Cc3ccc(F)cc3)c(=O)[nH]2)CC1	-4	106	-1.8	38	99	0.95	i
COc1cc(/C=N/NC(=O)c2cccnc2)ccc1OS(=O)(=O)c1ccc(C)cc1	-7	nt	-0.6	nt	109	0.87	i
COc1cc(/C=N/NC(=O)c2ccncc2)ccc1OCCN1CCCCC1	7	nt	-0.2	nt	105	0.89	i
COC(=O)c1c(C)[nH]c(C(=O)CSc2ncnc3sc(-c4ccccc4)cc23)c1C	3	89	-0.2	31	111	0.9	i
Cc1cc(C)cc(OC(=O)CCN2C(=O)c3ccccc3C2=O)c1	-4	125	-1.8	28	99	0.85	i
C/C(CC(=O)NC1CCCCC1)=N\NC(=O)Cc1ccc(-c2ccccc2)cc1	-3	57	nt	27	100	0.96	i
O=c1[nH]c(CN2CCCCC2)nc2ccccc12	-3	43	-0.1	29	99	1	i
Cc1cc(C)c(NC(=O)CS(=O)CC(=O)Nc2cccnc2)c(C)c1 (configuration not stated)	-8	112	-1.9	30	111	0.98	i
CC1CC(=O)NN=C1c1cccs1 (configuration not stated)	nt	nt	nt	nt	97	1	i
O=C(O)CCCC(=O)N1CCN(C(c2ccccc2)c2ccccc2)CC1	-6	nt	-0.5	nt	124	0.93	i
O=C(CCC1CC(=O)Nc2ccccc21)NCc1cccnc1 (configuration not stated)	9	64	-1.4	5	120	nt	nt
OCCN1CCOCCOCCN(CCO)CCN(CCO)CC1	0	37	-1.7	-30	100	0.76	i
O=C(CSc1nc2c(sc3ccccc32)c(=O)n1-c1ccccc1)NCc1ccco1	-1	82*	-0.3	73*	96	0.87	i
CN(C)S(=O)(=O)c1cc(NC(=O)c2cc(=O)[nH]c3ccccc23)ccc1Cl	-10	nt	nt	nt	96	0.83	i
Cc1cc(C)n(CC(=O)c2ccc(Cl)cc2)n1	3	nt	nt	nt	103	1	i
O=C(CCCN1C(=O)c2ccccc2C1=O)N1CCN(c2ccccn2)CC1	-11	61	-1.8	19	102	0.96	i
O=C(NCCCN1CCOCC1)c1ccc(CSCc2cccc(Cl)c2)o1	-1	101	nt	7	92	0.95	i
Cc1cccc(NC(=O)C2CCCN2/C=C/C(=O)C(F)(F)F)c1C (configuration not stated)	-7	nt	-1.1	nt	174	nt	?
Cc1ccc(CSc2nc3c(c(=O)[nH]2)CCC3)cc1	1	156	-1.1	0	102	0.98	i
O=C(Nc1cccc(-c2csc(Nc3ccccc3)n2)c1)c1ccccc1	nt	nt	nt	nt	95	0.54	i

Assay outcomes: PubChem BioAssay, several laboratories
